# KCNQ2 block: KCNQ2 potassium channel inhibitors, primary screen, cell-based, CHO-K1, FluxOR thallium flux, B-score (AID 2156); 310,000 tested, 1.1% active; Potassium voltage-gated channel subfamily KQT member 2 (Rattus norvegicus), O88943; 20 min; hits give low values; only compounds with negative scores are shown here; some inactives read as strong as hits; B-score at 10 µM;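 active means fluorescence ratio B-score at most minus 3 library SDs, with starting brightness B-score within 2 library SDs, cut at about -5.5 in these data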
# KCNQ2 block baseline: further read-out of KCNQ2 block, marked with its call; B-score; measured here: initial fluorescence intensity artifact check;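 brightness before thallium and not channel activity; 0 = typical well and far values either way flag optical interference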
# Numbers without * were called inactive; i = inactive.
SMILES,KCNQ2 block,KCNQ2 block baseline
C[C@]12CC3CC(N)(C1)C[C@@](C)(C3)C2,i,0.14

# Assay outcomes: PubChem BioAssay, Johns Hopkins Ion Channel Center

# The list is partial (hit frequency here may not be typical).
